# Compound activity as filed in PubChem.
# KCNQ2 inh = KCNQ2 potassium channel inhibitors, primary screen, cell-based, CHO-K1, FluxOR thallium flux, B-score (AID 2156); actives 1.1% (n = 310,000); B-score at 10 µM; O88943; 20 min; stronger effect = lower value; only compounds with negative scores are shown here; some inactives read as strong as hits;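 active = fluorescence ratio B-score at most minus 3 library SDs, with starting brightness B-score within 2 library SDs, cut at about -5.5 in these data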
# Target sequence (O88943 whole entry, looked up): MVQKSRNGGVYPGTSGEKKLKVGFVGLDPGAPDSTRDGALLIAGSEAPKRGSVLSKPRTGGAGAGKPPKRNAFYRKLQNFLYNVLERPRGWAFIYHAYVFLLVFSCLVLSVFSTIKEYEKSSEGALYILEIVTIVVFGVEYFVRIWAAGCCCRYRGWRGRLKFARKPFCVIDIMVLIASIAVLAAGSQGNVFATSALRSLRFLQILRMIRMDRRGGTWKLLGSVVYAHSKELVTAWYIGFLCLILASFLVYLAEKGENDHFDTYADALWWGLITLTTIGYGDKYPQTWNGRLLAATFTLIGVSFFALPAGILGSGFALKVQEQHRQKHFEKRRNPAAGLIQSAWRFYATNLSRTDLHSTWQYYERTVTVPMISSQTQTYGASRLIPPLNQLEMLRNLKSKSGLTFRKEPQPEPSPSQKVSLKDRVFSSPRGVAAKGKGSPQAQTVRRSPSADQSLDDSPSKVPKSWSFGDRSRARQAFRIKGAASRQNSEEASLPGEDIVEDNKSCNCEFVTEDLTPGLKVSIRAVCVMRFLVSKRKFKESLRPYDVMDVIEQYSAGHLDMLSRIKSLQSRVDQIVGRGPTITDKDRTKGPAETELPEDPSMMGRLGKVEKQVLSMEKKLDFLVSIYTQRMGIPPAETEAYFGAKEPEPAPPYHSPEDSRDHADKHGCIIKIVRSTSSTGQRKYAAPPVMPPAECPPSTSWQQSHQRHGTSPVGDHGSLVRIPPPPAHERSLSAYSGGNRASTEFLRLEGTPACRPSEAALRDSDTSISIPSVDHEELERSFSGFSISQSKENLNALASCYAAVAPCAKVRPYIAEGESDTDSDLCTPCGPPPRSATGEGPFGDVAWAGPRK
# KCNQ2 inh baseline = recorded beside KCNQ2 inh, whose call it bears; B-score; measured here: initial fluorescence intensity artifact check;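 brightness before thallium and not channel activity; 0 = typical well and far values either way flag optical interference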
# * marks the source's active call; other numbers are inactive results; i = inactive. The list is partial (hit frequency here may not be typical).
Molecule	KCNQ2 inh	KCNQ2 inh baseline
O=C(NCCc1ccccc1Cl)C1CCC(=O)N(Cc2ccc(Cl)cc2)C1 (stereo unspecified)	i	-0.7
O=C(CCc1ccccc1)c1c(O)cc(O)cc1O	-8.23*	-2.08*
O=C(O)Cn1cnc2c(oc3ccccc32)c1=O	i	-0.72
Cc1ccc(O)c(C=Nc2cc(C)ccc2O)c1	i	0.82
CCCCSc1nnc(-c2ccc(C)cc2)n1C	i	-0.87
COCC(=O)NC1CC2CCCC(C1)N2Cc1ccccc1 (stereo unspecified)	i	3.89
O=C(Cc1c(Cl)cccc1Cl)OCc1ccccn1	i	0.83
CCOC(=O)CC1CCCCN1Cc1nc(-c2ccc(F)c(OC)c2)oc1C (stereo unspecified)	i	-0.67
COc1cccc(C(=O)NC(C)C(c2cccs2)N2CCN(C)CC2)c1 (stereo unspecified)	i	-0.74
C=CCc1cc(OC)ccc1OCCN(C)Cc1ccccc1	i	-0.89
CCc1cc2c(NCCO)ncnc2s1	i	1.99
Cc1ccc(-n2c(=O)[nH]c3ncccc3c2=O)cc1	i	-2.11
COc1ccc(/C=N\NC(=O)c2ccc(-c3ccccc3)cc2)cc1COC(C)=O	i	-2.8
O=C(COc1ccc2c3c(c(=O)oc2c1)CCCC3)N1C[C@H]2C[C@@H](C1)c1cccc(=O)n1C2	i	-1.78
Cc1ccc(C)c(Cn2nnc3c(=O)[nH]c(C4CCCN(C(=O)C5CCC5)C4)nc32)c1 (stereo unspecified)	i	0.13
CC(/C=C/c1ccccc1)=N\NC(=O)CSc1ccccn1	i	-0.28
Cc1ccc(NC(=O)CN2CCC(Cc3ccccc3)CC2)cc1S(=O)(=O)N(C)C	i	0.98
CN(CCC#N)C(=O)CSc1ncnc2sc(-c3ccccc3)cc12	i	0.1
COC(=O)Cc1c(O)ccn(CCc2c[nH]c3ccc(OC)cc23)c1=O	i	0.74
Cc1ccc(Cc2c(C)nc3nc(SCC(=O)NCc4ccco4)nn3c2C)cc1	i	0.13

# Filtered by structure, the compounds so far with an aryl thioether with sulfur outside any ring
Molecule	KCNQ2 inh	KCNQ2 inh baseline
CCCCSc1nnc(-c2ccc(C)cc2)n1C	i	-0.87
CC(/C=C/c1ccccc1)=N\NC(=O)CSc1ccccn1	i	-0.28
CN(CCC#N)C(=O)CSc1ncnc2sc(-c3ccccc3)cc12	i	0.1
Cc1ccc(Cc2c(C)nc3nc(SCC(=O)NCc4ccco4)nn3c2C)cc1	i	0.13

# (list continues)
Molecule	KCNQ2 inh	KCNQ2 inh baseline
OCc1nc2ccccc2n1CCCOc1ccc(Br)cc1	i	-0.05
CCOc1ccccc1NC(=O)NNS(=O)(=O)c1cc(C)ccc1C	i	-0.54
Cc1cc(C)n(-c2ccc(Oc3ccccc3)c(S(=O)(=O)O)c2)n1	i	-1.43
COc1cccc(NC(=O)CSc2nnc(Cc3cccn3C)n2-c2ccc(F)cc2)c1	i	-1.29
COc1cc(OC)cc(C(=O)N[C@H](C(=O)Nc2ccc(NC(C)=O)cc2)C(C)C)c1	i	0.83
Cc1c(Cl)c(C(=O)Nc2nc3ccccc3n2CCN2CCCCC2)nn1C	i	1.79
Cc1ccc(S(=O)(=O)N2CCC(C(=O)OCC(=O)N3CC(C)CC(C)C3)CC2)cc1C (stereo unspecified)	i	0.18
N#CC1=C(c2ccccc2)/C(=C/c2ccccc2)OC1=O	i	0.59
CCNC(=O)c1ccccc1SCc1ccccc1	-7.41*	0.31*
O=C1OC(OC(=O)c2ccccc2Br)C(N2CCOCC2)=C1Cl (stereo unspecified)	i	0.73
Cn1cccc1Cc1nnc(SCC(=O)Nc2ccc3c(c2)OCO3)n1CCc1ccccc1	i	-1.52
O=C(CCCSc1nc2ccccc2[nH]1)NCc1ccc(Cl)cc1	i	-1.78
Cc1ccc2[nH]c(=O)c(CN(Cc3ccccc3)Cc3nnnn3C3CCCC3)cc2c1	i	-0.87
CSc1nc2c(c(=O)[nH]c(=O)n2C)n1Cc1ccccc1Cl	i	3.71
COC(=O)c1ccccc1NC(=O)Nc1cccs1	i	0.37
Cc1ccccc1C(=O)OCC(=O)N(C)c1ccccc1	i	1.09
CCOc1cccc(C(=O)Nc2ccc(NC(=O)c3cc4ccccc4o3)c(OC)c2)c1	i	2.17
CCOc1ccccc1N(C)C(=O)CCS(=O)(=O)c1ccc2c(c1)NC(=O)CO2	i	1.57
CC1CN(S(=O)(=O)c2cccc(C(=O)OCC(=O)c3cccs3)c2)CC(C)O1 (stereo unspecified)	i	1.31
COc1ccc(-c2onc(C)c2-c2cnn(-c3ccccc3)c2)c(O)c1	i	1.17

# (further entries)
Molecule	KCNQ2 inh	KCNQ2 inh baseline
CCn1c(SCc2ccc(OC)c(F)c2)nc2ccccc2c1=O	i	-0.09
Cc1cc(=O)oc2c(C)c(OCC(=O)NCc3ccccn3)ccc12	i	-0.02
O=C(Nc1ccc(N2C(=O)C3CCCCC3C2=O)cc1Cl)c1cccs1 (stereo unspecified)	i	0.15
COC(=O)c1cccc(NCN2C(=O)c3ccccc3C2=O)c1	i	-0.71
COC(=O)c1ccccc1NC(=O)Nc1nnc(N2CCC(C)CC2)s1	i	-0.16
Fc1ccc(C(c2ccc(F)cc2)N2CCN(C/C=C/c3ccccc3)CC2)cc1	-8.64*	-0.15*
CCCCOc1ccc(-c2cc(C(F)(F)F)c(C#N)c(SCC(=O)O)n2)cc1	i	5.57
O=C(Nc1nc(-c2ccccc2)cs1)C1c2ccccc2Oc2ccccc21	i	1.08
O=C(/C=C/c1ccc(S(=O)(=O)N2CCOCC2)cc1)NCc1ccc(Cl)cc1	i	0.28
CC(=O)Nc1ccc(/C(C)=N/Nc2nc(Nc3cccc4ccccc34)nc(N3CCOCC3)n2)cc1	i	-1.15
O=C(CCCC(=O)N(CC(=O)NC1CCCCC1)Cc1ccccc1)Nc1ccccn1	i	-0.18
O=C1/C(=C/c2ccc(Cl)cc2)NC(=S)N1Cc1cccnc1	i	2.04
Cc1ccc(S(=O)(=O)N(C)C)cc1NC(=O)Nc1c(-c2ccccc2)noc1C	i	-0.01
CCn1c(SCc2cccc(C)c2)nnc1-c1ccc(C)cc1	-5.98*	-1.78*
O=[N+]([O-])/C(C(Cl)=C(Cl)Cl)=C(/NC1CC1)Sc1ccccc1	i	-2.75
CC12CCC(C(=O)OC3CCCCC3)(OC1=O)C2(C)C (stereo unspecified)	i	-0.77
O=C(NCCc1ccccc1)C1CCN(S(=O)(=O)N2CCOCC2)CC1	i	-1.48
CCOCCOC(=O)c1[nH]c2c(c1C)C(=O)CC(c1ccccc1)C2 (stereo unspecified)	i	-0.04
Cc1cc(=O)[nH]c(SCC(=O)Nc2ccc3c(c2)OCCO3)n1	i	-0.93
O=C(CSCCO)Nc1cc(C(F)(F)F)ccc1Cl	i	1.14

# Later entries
compound | KCNQ2 inh | KCNQ2 inh baseline
N#Cc1ccc(S(=O)(=O)NC2CCCCNC2=O)cc1 (stereo unspecified) | i | -0.7
O=C(CN1CCN(S(=O)(=O)c2cc(Cl)ccc2Cl)CC1)c1ccc(O)c(O)c1 | i | -1.03
COc1cccc(C2CC(=O)Nc3c2c(=O)n(C)c(=O)n3C)c1OC (stereo unspecified) | i | -0.26
O=C(O)c1ccc(CSc2nnc(-c3ccncc3)n2-c2ccc(Cl)cc2)cc1 | i | 2.77
C=CCC1(C#N)C(=S)NC(C)=C(C(=O)OCC)C1c1ccccc1 (stereo unspecified) | i | -0.73
O=C(c1ccc([N+](=O)[O-])cc1)N1CCc2ccccc2C1 | i | 0.13
COC(=O)c1ccc2c(=O)n(CCCCCC(=O)NCCNC(C)=O)c(=O)[nH]c2c1 | i | -1.09
COc1ccc(OCC(=O)Nc2c3c(nn2-c2ccccc2)CS(=O)(=O)C3)cc1 | i | 1.32
CC(c1ccccc1)N1C(=O)NC(NC(=O)c2cccnc2)(C(F)(F)F)C1=O (stereo unspecified) | i | 0.67
CCC(C)C(N)C(=O)NC(CCC(=O)OCc1ccccc1)C(N)=O (stereo unspecified) | i | 0.15

# (listing goes on)
compound | KCNQ2 inh | KCNQ2 inh baseline
CC(C)n1c(O)c(N=NC(=O)c2ccccc2NS(=O)(=O)c2cccs2)c2ccccc21 | i | -0.33
Cc1ccc(C(=O)NCC2CCCO2)o1 (stereo unspecified) | i | 1.32
CCn1c(CC(=O)Nc2ccccc2)nnc1SCC(=O)NC1=NCCS1 | i | -0.01
Cc1ccc(S(=O)(=O)N2CCN(C)CC2)c(C)c1N(C)S(=O)(=O)c1ccc(Cl)cc1 | i | -0.97
C#CCNC(=O)C1=C[C@@H](c2ccc(C(F)(F)F)cc2)C[C@@H](OCCCCO)O1 | i | 1.19
Cn1nnnc1SCc1ccc(F)cc1 | i | -0.2
CCOC(=O)C1C(c2cccc(Cl)c2Cl)NC(=O)NC1(O)C(F)(F)F (stereo unspecified) | i | -0.76
CCc1nnc(NC(=O)CSc2nnc(-c3ccncc3)n2Cc2ccccc2)s1 | i | 0.35
COc1ccc(OC)c(-c2cc(C(=O)NCCCn3ccnc3)no2)c1 | i | 2.67
O=C(CNC(=O)c1cccs1)Nc1ncccc1O | i | 1.37

# Further structures:
compound | KCNQ2 inh | KCNQ2 inh baseline
CCCOC(=O)C1=C(C)NC(=O)NC1c1cc2c(cc1Br)OCO2 (stereo unspecified) | i | -0.61
Cc1cc(OCC(=O)Nc2ccccc2N2CCCCC2)ccc1C(C)C | i | 0.09
COc1ccc(C(c2nnnn2C2CCCCC2)N2CCN(c3ccc(OC)cc3)CC2)cc1 (stereo unspecified) | i | 0.15
COc1cccc(C(=O)NNC(=O)c2cccc(F)c2)c1 | i | 0.13
OC(COC1CCCCC1)CN1CCCCC1 (stereo unspecified) | i | 0.88
Cc1ccc(NC(=S)NCCN2CCOCC2)cc1F | i | 1.01
CC1CN(C(=O)CCC(=O)NCc2ccccc2)c2ccccc2O1 (stereo unspecified) | i | -0.42
CCOC(=O)C1(CCOC)CCN(Cc2ccc(COC)o2)CC1 | i | 0.92
CCN(C(=S)NCc1ccccc1)c1cccc2ccccc12 | i | 2.16
Cc1cc(N2CCCCCC2)nc(-c2ccccc2O)n1 | i | -0.75

# (listing goes on)
compound | KCNQ2 inh | KCNQ2 inh baseline
O=C(CCn1nc(-c2ccccc2)ccc1=O)N1CCOCC1 | i | -0.54
CC1CCN(C(=O)c2cc(F)c(F)cc2Cl)CC1 | i | 2.01
O=C1c2ccsc2SCCN1Cc1ccc(F)cc1 | i | -0.86
CCn1c(=O)c2cc(C(=O)Nc3cccc(C(C)=O)c3)sc2c2ccccc21 | i | -0.31
Cc1cc(OCC(=O)NCCCN2CCCC2=O)c2c(C)cc(=O)oc2c1 | i | 0.73
CC(=O)COc1ccc2c(-c3cccc([N+](=O)[O-])c3)cc(=O)oc2c1 | i | -0.5
COc1cc(/C=N/NC(=O)c2cccnc2)ccc1OCC(=O)N1CCOCC1 | i | 0.94
CCCC(=O)NC(C)c1nc2ccccc2[nH]1 (stereo unspecified) | i | 0.85
CCOC(=O)C1CCN(C(=O)C2CCN(S(=O)(=O)c3cc(Cl)ccc3OCC)CC2)CC1 | i | 0.17
Cc1cc(C)c2c(n1)SCC(=O)N2CC(=O)Nc1c(C)cccc1C | i | 0.58

# Three compounds already listed, sorted by the value under KCNQ2 inh baseline, rising:
compound | KCNQ2 inh | KCNQ2 inh baseline
O=C1c2ccsc2SCCN1Cc1ccc(F)cc1 | i | -0.86
CCOC(=O)C1CCN(C(=O)C2CCN(S(=O)(=O)c3cc(Cl)ccc3OCC)CC2)CC1 | i | 0.17
CC1CCN(C(=O)c2cc(F)c(F)cc2Cl)CC1 | i | 2.01

# Continued.
compound | KCNQ2 inh | KCNQ2 inh baseline
CCC1(CC)Cc2ccccc2-c2nc(NN)[nH]c(=O)c21 | i | -0.25
CN(Cc1c(C(=O)N2CCc3ccccc3C2)nc2ccc(Cl)cn12)C(C1CC1)C1CC1 | -7.87* | -0.57*
COc1ccc(C2Nc3ccccc3C(=O)N2NS(=O)(=O)c2ccc(C)cc2)cc1 (stereo unspecified) | i | -0.96
C=C1c2ccccc2NC(=S)N1Cc1ccc2c(c1)OCO2 | i | 0.33
CC(C(=O)Nc1ccc(N(C)C)cc1)N1C(=O)c2ccccc2S1(=O)=O (stereo unspecified) | i | 0.18
O=C(N[C@H]1CCCCNC1=O)c1cc(COc2ccc(F)cc2F)on1 | i | -1.89
O=C(c1ccc(-n2cccc2)cc1)N1CCOCC1 | i | 1.02
CC(C)n1c(/N=C/c2ccccc2O)nc2ccccc21 | i | 3.12
CCOC(=O)C(=NC(C)C)NNc1cc(Cl)ccc1Cl | i | -0.01
COCCNC(=O)C1CCN(S(=O)(=O)c2ccc3c(c2)OCCO3)CC1 | i | 1.01

# Rewritten with two lines to a compound: 2 of the compounds above
# Below each compound: KCNQ2 inh | KCNQ2 inh baseline
COc1ccc(C2Nc3ccccc3C(=O)N2NS(=O)(=O)c2ccc(C)cc2)cc1 (stereo unspecified)
  i | -0.96
C=C1c2ccccc2NC(=S)N1Cc1ccc2c(c1)OCO2
  i | 0.33

# (listing goes on)
compound | KCNQ2 inh | KCNQ2 inh baseline
CC(=O)n1cc([C@H]2C=C(C(=O)NCc3ccccc3)O[C@@H](OCCCCO)C2)c2ccccc21 | i | 2.74
Cc1c(Br)c([N+](=O)[O-])nn1CC(=O)NCCc1ccc(Cl)cc1 | i | 0.39
CCOC(=O)/C(=C\c1cccc(O)c1)c1nc2sc(C)c(C)c2c(=O)[nH]1 | i | 2.72
CC(=O)N(C)c1nc(N)n(-c2ccccc2)n1 | i | -1.44
CCOc1ccccc1NC(=O)CSc1nc2nc(-c3cccs3)cc(C(F)(F)F)c2c(=O)[nH]1 | i | -0.72
O=C(CCn1nc(-c2ccc(Cl)cc2)c2ccccc2c1=O)Nc1cccnc1 | i | 1.63
O=C(NNS(=O)(=O)c1ccccc1)c1cccc([N+](=O)[O-])c1 | i | -0.68
COc1ccc(OC)c2sc(N(CCN(C)C)C(=O)c3ccc4ccccc4c3)nc12 | i | -1.2
Cc1ccc(NC2CCCN(C(=O)c3cn(C)c4ccccc34)C2)cc1C (stereo unspecified) | i | -1.4
Nc1ccc(C23CC4CC(CC(O)(C4)C2)C3)cc1 | i | 0.16
Cc1cc(N(C)C)c(C#N)c(N2CCCCC2)n1 | i | 0.38
CC(=O)Nc1ccc(Nc2cc(N3CCOCC3)c3nonc3c2[N+](=O)[O-])cc1 | i | 0.43
